Vaccinia mCherry = qHTS for Stage-Specific Inhibitors of Vaccinia Orthopoxvirus: mCherry Reporter Primary qHTS. Potency, µM (highest dose often 36.5 µM), without a hit: top-dose activity change, negative = inhibition, actives largely listed as inhibitors. Vaccinia virus mCherry reporter infection, fluorescence; about a quarter of the inactives have no number. hit rate 0.63% among 310,000; active = well fitted inhibition curve with a large enough effect; inconclusive = small, poorly fitted or top-dose-only effect; inactive = no such curve, though single readings can be large or run the other way; tested in A549 cells; also: nearly all actives have a fitted effect of over 35% in size; inactives centre near -10
VACV Venus inh = qHTS for Stage-Specific Inhibitors of Vaccinia Orthopoxvirus: Venus Reporter Primary qHTS. hit rate 0.46% among 330,000. Potency, µM (series often up to 36.5 µM), without a hit: at the top dose activity change, negative = inhibition, usual class: inhibitors. Vaccinia virus Venus reporter expression, fluorescence. AID 720580, 2013; active means well fitted inhibition curve with a large enough effect; inconclusive means small, poorly fitted or top-dose-only effect; inactive means no such curve, though single readings can be large or run the other way; tested in A549 cells; also: nearly all actives have a fitted effect of over 30% in size; inactives centre near -10
Numbers without * were called inactive; i = inactive; ? = inconclusive; · = no result given; [ ] = remark or other dose. % is scaled to controls: 0 for no effect and ±100 for the full control effect; potency is read from the fitted curve at half-maximal effect.

Start of the listing, in advance (4 entries):
SMILES	Vaccinia mCherry	VACV Venus inh
O=C(Cc1ccccc1)NNC(=S)Nc1ccccc1	i	8%
NC(=O)C1CCN(C(c2ccccc2F)c2nnnn2Cc2ccco2)CC1 (stereo unspecified)	i	-7%
O=C(N/N=C/C(Cl)=C/c1ccccc1)c1ccncc1	1%	-7%
COc1cccc(-c2nc3c(c(=O)[nH]c(=O)n3Cc3ccccc3)n2CCO)c1OC(F)F	-6%	-18%

This part in full, from the start:
SMILES	Vaccinia mCherry	VACV Venus inh
O=C(Cc1ccccc1)NNC(=S)Nc1ccccc1	i	8%
NC(=O)C1CCN(C(c2ccccc2F)c2nnnn2Cc2ccco2)CC1 (stereo unspecified)	i	-7%
O=C(N/N=C/C(Cl)=C/c1ccccc1)c1ccncc1	1%	-7%
COc1cccc(-c2nc3c(c(=O)[nH]c(=O)n3Cc3ccccc3)n2CCO)c1OC(F)F	-6%	-18%
CCOc1ccc(NC(=O)NCCCN2CCN(c3ccc(OC)cc3)CC2)cc1	-18%	-7%
Cc1ccc(NC(=S)NNS(=O)(=O)c2ccc3ccccc3c2)cc1Cl	?	-4%
C/C=C/C=C/C(=O)OC(C)C(=O)Nc1cc([N+](=O)[O-])ccc1OC (stereo unspecified)	?	?
O=c1ccn([C@@H]2O[C@H](CNCc3ccccc3OCc3ccc(Cl)cc3Cl)[C@@H](O)[C@H]2O)c(=O)[nH]1	i	-13%
CS(=O)(=O)N(CC(=O)N1CCCCCC1)c1ccc2c(c1)OCCO2	-4%	-9%
O=C(CC1C(=O)NCCN1Cc1cccc(F)c1)NCCCN1CCCC1=O (stereo unspecified)	-10%	1%
CCC(C)N(C(=O)CSc1nc(C)c(C)c(C)c1C#N)C1CCS(=O)(=O)C1 (stereo unspecified)	-25%	-18%
CC(C)(C)c1nnc(NS(C)(=O)=O)s1	i	-14%
Cc1ccc(NS(=O)(=O)c2ccc3c(c2)oc(=O)n3C)cc1F	-21%	-16%
Nc1ccc(-c2nnnn2-c2ccc(N)cc2)cc1	-15%	0%
CC1CCC(C(C)C)C(OC(=O)COC(=O)c2cc(O)ccc2N)C1 (stereo unspecified)	-21%	?
CC(=O)OCC(=O)C1(O)CCC2C3CC(C)C4=CC(=O)C=CC4(C)C3=CCC21C (stereo unspecified)	i	-10%
Cc1ccccc1S(=O)Cc1ccc(C(=O)NCc2ccccc2Cl)o1 (stereo unspecified)	-15%	-3%
COc1cc(C(=O)N2c3ccccc3CCC2C)cc(OC)c1OC (stereo unspecified)	-13%	-9%
O=C1COCC(=O)N1CCc1c[nH]c2ccccc12	i	0%
Cc1oc(-c2cccs2)[n+]([O-])c1C	-14%	-8%
COc1ccc(CN(C)Cc2ccccc2)c(OC)c1OC	-21%	-7%
COc1ccc(/C(=N/O)C(C)(C)NO)cc1	·	-16%
CCOC(=O)C1=C(C)C/C(=N\NC(=O)c2ccccc2O)CC1	?	-2%
CCOC(=O)c1sc(NC(=O)c2cc3ccccc3o2)nc1C	i	-8%
COC(=O)Cn1nc(-c2ccccc2)c2ccccc21	-6%	-1%
CCN1CCN(c2ccc(S(=O)(=O)N3CCOCC3)cc2NC(=O)c2cc(Cl)nc3ccccc23)CC1	-21%	-17%
Cc1cc2nc3n(c2cc1C)CC1CC(C(=O)NCCC(C)C)N(C)C31 (stereo unspecified)	-10%	-12%
COc1ccc(CCNC(=O)NC23CC4CC(CC(C4)C2)C3)cc1OC	·	?
CC(=O)OC1(C(C)=O)CCC2C3CC(C(F)(F)F)C4=CC(=O)CCC4(C)C3CCC21C (stereo unspecified)	?	-11%
Nc1nc2nccc(-c3ccco3)n2n1	-14%	-7%
CCN(CC)C(=O)C1=C(C)N(CCCN2CCCC2=O)C(=O)C(CC(=O)NCCN2CCOCC2)C1 (stereo unspecified)	-9%	-10%
Cc1c(C(=O)Nc2cccc(Oc3ccccc3)c2)sc(=O)n1Cc1ccc(F)cc1	11%	-20%
CC(C)(C)OC(=O)NCc1ccc(CNC(=O)c2[nH]cnc2C(=O)N[C@@H](Cc2ccccc2)C(=O)OC(C)(C)C)cc1	-18%	?
Cc1ccccc1-n1c(=S)[nH]c2nc3c(cc2c1=O)CCCC3	-2%	-1%
CN1C[C@@H]2C(c3ccc(C(F)(F)F)cc3)C3(c4ccccc4)CC2(C3)[C@H]1c1ccccc1 (stereo partly specified)	?	-13%
CCNC(=S)N/N=C(\C)c1ccc2c(c1)OCCO2	-29%	-23%
CC(=O)c1cccc(N(C(=O)c2ccccn2)C(C(=O)NC2CCCCC2)c2cccs2)c1 (stereo unspecified)	-5%	-6%
CN(Cc1cccs1)C(=O)CSc1nc(N)cc(N)n1	9%	-5%
CCc1ccc(OCC(=O)NC2CC(C)(C)NC(C)(C)C2)cc1	i	-17%
COc1cccc(N(CC(=O)NCCSCc2ccc(Cl)cc2)S(C)(=O)=O)c1	-18%	-20%
COc1ccc(C(=O)c2ccsc2N)cc1	-24%	2%
O=C(C[n+]1ccc(-c2nnc3n2CCCCC3)cc1)c1ccc(Cl)cc1	-8%	-11%
Clc1ccc(-n2nnc(-c3cccnc3Cl)n2)cc1Cl	-6%	-16%
CCN1CCN(CCCN(Cc2ccco2)C(=S)Nc2ccc(C)c(Cl)c2)CC1	-2%	-20%
CCOC(=O)N/N=C/c1ccccc1F	-6%	-10%
COc1ccccc1NC(=O)CCCC(=O)OC(C)C(=O)c1ccccc1 (stereo unspecified)	-9%	-9%
COc1cc(CN2C[C@@H](CO)O[C@@H](n3cnc4c(N(C)C(C)C)ncnc43)C2)cc(OC)c1OC	1%	8%
Cc1ccc(CN2C(=O)C3(c4ccccc42)N(c2ccc(C)c(Cl)c2)C(=O)CS3(=O)=O)cc1 (stereo unspecified)	2%	-7%
COc1ccc(NC(=O)c2sc3nc4c(cc3c2N)CN(Cc2ccccc2)CC4)cc1OC	-12%	-10%
O=C(N/C=C/c1ccccc1)c1ccccc1	4%	-11%
CCN(C(=O)CN1CC=C(c2ccccc2)CC1)c1c(N)n(Cc2ccccc2)c(=O)[nH]c1=O	-4%	-13%
CCOc1ccc2oc(C(=O)NNC(=O)c3ccccc3O)c(C)c2c1	?	-12%
COC(=O)c1cc(NC(=O)c2ccc(-c3ccccc3)cc2)ccc1Cl	-18%	-10%
O=C1OCCC1=COCCCCCCOC=C1CCOC1=O	i	-8%
Cc1ccc(NC(=O)CSc2nc(-c3ccc(F)cc3)nc3c2Cc2c(CO)cnc(C)c2O3)cc1C	1%	-3%
CCC1ON(C(C)C)C2c3nc4ccccc4n3CC12 (stereo unspecified)	i	-15%
Cc1c(NC(=O)CC(O)(C(F)(F)F)C(F)(F)F)c(=O)n(-c2ccccc2)n1C	-2%	-6%
CCCCCC(=O)Nc1nc(C)c(-c2csc(Nc3ccccc3OC)n2)s1	?	-24%
COC(=O)c1nnn(-c2nonc2N)c1CSc1nnc(N)s1	-17%	?
Nc1nc(SCc2ccccc2)c2ncn(CCO)c2n1	-13%	-18%

An excerpt of these results, with two lines to a compound:
Each structure is followed by: Vaccinia mCherry | VACV Venus inh
- Cc1c(NC(=O)CC(O)(C(F)(F)F)C(F)(F)F)c(=O)n(-c2ccccc2)n1C
  -2% | -6%
- CCCCCC(=O)Nc1nc(C)c(-c2csc(Nc3ccccc3OC)n2)s1
  ? | -24%

Random excerpt: three compounds from above.
SMILES	Vaccinia mCherry	VACV Venus inh
COc1cc(CN2C[C@@H](CO)O[C@@H](n3cnc4c(N(C)C(C)C)ncnc43)C2)cc(OC)c1OC	1%	8%
Cc1c(NC(=O)CC(O)(C(F)(F)F)C(F)(F)F)c(=O)n(-c2ccccc2)n1C	-2%	-6%
Cc1ccc(NC(=O)CSc2nc(-c3ccc(F)cc3)nc3c2Cc2c(CO)cnc(C)c2O3)cc1C	1%	-3%

(continued)
SMILES	Vaccinia mCherry	VACV Venus inh
CCOC(=O)[C@H]1[C@H]2COc3cc(OC)ccc3[C@@H]2N2C(=O)CN(CCc3c[nH]c4ccccc34)C(=O)[C@@]12C	i	-11%
CC(C)(C)c1ccc(C(=O)Nc2ccc(N3CCOCC3)cc2)cc1	-16%	-30%
Oc1c(C(Nc2cccc(C(F)(F)F)c2)c2cccnc2)ccc2cccnc12 (stereo unspecified)	-22%	-24%
O=C(O)c1ccc(COc2ccc(CO)cc2Cl)cc1	-22%	-9%
CCOC(=O)c1c(C)[nH]c(C(=O)N2CCC(C(=O)OCC)CC2)c1C	-10%	0%
Nc1c(N(Cc2ccco2)C(=O)c2ccc(Cl)cc2)c(=O)[nH]c(=O)n1Cc1ccccc1	-21%	-14%
c1ccc(CCCN2CCN(CCOC(c3ccccc3)c3ccccc3)CC2)cc1	?	?
COC(=O)C(NC(C)=O)(Nc1nc2c(s1)CCCC2)C(F)(F)F (stereo unspecified)	·	-14%
CC(=O)Nc1ccc(S(=O)(=O)Nc2cccc(N(C)S(C)(=O)=O)c2)cc1	·	-11%
NNc1nc(-c2ccccc2)c2cc(Br)ccc2n1	?	-15%
CN(C(=O)c1ccc(S(=O)(=O)N2CCCC2)cc1)C1CCCCC1	?	-17%
O=C(N[C@@H](Cc1ccccc1)C(=O)N1CCC2(CC1)NCCc1[nH]cnc12)c1cccc(F)c1	i	-3%
CCOc1ccccc1/C=C(\NC(=O)c1ccccc1)C(=O)NCCC(=O)O	-17%	-19%
COc1ccc(-c2c(C)nn3c(C(F)(F)F)cc(C)nc23)cc1	-6%	-30%
CCC(C)NCCCOc1ccc(Cl)cc1C(C)(C)C (stereo unspecified)	i	-14%
Cc1cc(=O)oc2cc(OCC(=O)OCC(=O)Nc3ccc(C(N)=O)cc3)ccc12	-8%	53%[activator]
CCn1cc(CNCc2cn[nH]c2-c2cc3ccccc3o2)cn1	i	-8%
COc1ccc2c(C)cc(N3CCN(c4ccc(F)cc4)CC3)nc2c1	-2%	-11%
COc1ccc(-c2c3c(nc4sc5c(Cl)nc(C)nc5c24)CCC3)cc1	·	-14%
COc1cc(OC)nc(Nc2nc(C(N)Cc3ccc(F)cc3)cs2)n1 (stereo unspecified)	-28%	-24%
O=C(COC(=O)CCc1c[nH]c2ccccc12)Nc1cccc(Cl)c1	i	-12%
CCCCCCn1c(N)c(C(=O)NCCN2CCOCC2)c2nc3ccccc3nc21	·	?
Cc1c(OCC(=O)NCC2CCC(C(=O)O)CC2)ccc2c3c(c(=O)oc12)CCC3 (stereo unspecified)	-15%	-8%
O=C1NCCCc2nc(Oc3ccccc3)sc21	·	-12%
COC(=O)c1ccc(NC(=O)Nc2ccc(C)cc2)cc1	·	-8%
O=S(=O)(/N=C(\c1ccc(F)cc1)N1CCOCC1)c1ccccc1	i	2%
CCOC(=O)c1c(C)oc2ccc(N(C(=O)c3ccncc3)S(=O)(=O)c3ccc(Br)cc3)cc12	-21%	-8%
Cc1ccc(CN2CCN(/N=C/c3cccs3)CC2)cc1	-21%	-10%
N#CCc1ccc(NC(=O)c2ccc(S(=O)(=O)N3CCOCC3)cc2)cc1	i	-10%
COC(=O)[C@]12CCCCC=C1N(Cc1ccc(Cl)cc1Cl)C(=O)[C@H](CC(=O)NCc1cccs1)C2	6%	11%
C=CC#CC[N+]1(CC#Cc2ccccc2)CCOCC1	-11%	-26%
CCn1c(SCC(=O)N/N=C/C(C)=C\c2ccco2)nnc1-c1ccccc1	-9%	-19%
Cc1cccc2cc(CN(Cc3ccco3)C(=O)Nc3cccc(C#N)c3)c(Cl)nc12	-13%	-21%
CCOc1ccc(NC(=O)CCCN2C(=S)NC(C)(C)CC2C)cc1 (stereo unspecified)	-14%	-15%
Cc1cc(C)c2nc3c(c(C(=O)O)c2c1)CCC3	-9%	-1%
CN(C)S(=O)(=O)c1ccc(N2CCCC2)c(C(=O)Nc2ccccc2OC(F)F)c1	-24%	-18%
CN(CC(=O)N1CC=C(c2ccccc2)CC1)S(=O)(=O)c1cnc[nH]1	-9%[1.46 µM]	-9%
Cc1ccc(-n2nnnc2SCC(=O)N(CC(C)C)c2c(N)n(CC(C)C)c(=O)[nH]c2=O)cc1	-22%	-22%
CN(C)S(=O)(=O)c1cccc(NC(=S)NC23CC4CC(CC(C4)C2)C3)c1	-25%	-7%
COc1ccc(NS(=O)(=O)c2ccc(N)c(C(=O)O)c2)cc1	-5%[1.46 µM]	-21%
CCn1c(CNC(=O)COc2ccc(C(C)C)cc2)nnc1SCC(=O)Nc1ccccc1	-20%	-9%
CC(C)(C)c1ccc(C(=O)c2cn[nH]c2-c2ccccc2O)cc1	-21%	-20%
CCc1noc(C)c1C(=O)N(C)CC(=O)Nc1ccccc1C(F)(F)F	-11%	-10%
CN(C(=O)COC(=O)CNC(=O)C12CC3CC(CC(C3)C1)C2)c1ccccc1	-9%	-4%
Cc1c(Cl)cccc1NC(=S)N1CCN(c2ccccn2)CC1	i	4%
CC(C)(C)C(c1nc2ccccc2[nH]1)n1c(-c2cccc(S(C)(=O)=O)c2)nc2ccccc21 (stereo unspecified)	-6%	-12%
COc1cccc(/C(N)=N/OC(=O)Cc2ccccc2[N+](=O)[O-])c1	-21%	-12%
Clc1cccc(NCc2cn3cccnc3n2)c1	-54%	-8%
COc1ccc(CNC(=O)CCC(=O)Nc2cccnc2)cc1	i	-3%
Cc1cc(C)cc(NC(=S)NCCSc2ccc(Cl)cc2)c1	i	-7%
Cc1ccc(N2CCN(C(=O)CCc3c(C)nc4c(c3C)c(=O)n(C)c(=O)n4C)CC2)c(C)c1	2%	5%
COC(=O)C1=C(c2cc3ccccc3o2)C[C@@H]2CC[C@H]1N2C(=O)NCc1cccc2ccccc12	-10%	-28%

Individual results from above.
Result for `COc1cccc(/C(N)=N/OC(=O)Cc2ccccc2[N+](=O)[O-])c1` under VACV Venus inh: -12%
Result for `COc1ccc(CNC(=O)CCC(=O)Nc2cccnc2)cc1` under VACV Venus inh: -3%

No enrichment for hits; about 0.82% have a hit in one of these screens.
